MARV entry inh: blocks Marburg virus binding to or entry into cells; Marburg virus pseudotyped entry inhibition, cell reporter; control for the full effect not named in the record; about a third of the inactives were read at about 46 µM; Potency, µM (highest dose often 37.8 µM), for inactives: top-dose activity change, negative = inhibition, most hits filed as inhibitors; 1.8% of 300,000 active; AID 540276; active = well fitted inhibition curve with a large enough effect; inconclusive = small, poorly fitted or top-dose-only effect, or effect the other way; inactive = flat fitted curve, though single readings scatter; tested in HEK293 cells; about a fifth of its hits are not listed in these tables; note: % is set by controls: 0 for no effect and ±100 for the full control effect; luciferase read-out
2A StopGo: lowers the luciferase signal of an FMDV 2A StopGo reporter; Potency, µM (top dose mostly 57.9 µM), for the others: top-dose signal change, negative = less light; 1.2% of 410,000 active; AID 1159524; human cells with a luciferase reporter of 2A StopGo recoding; control for the full effect not named in the record; active = well fitted falling curve with a large enough effect; inconclusive = small, poorly fitted or top-dose-only effect; inactive = no such curve, though single readings can be large or run the other way; tested in HEK293T cells; note: % is set by controls: 0 for no effect and ±100 for the full control effect; nearly all actives have a fitted effect of over 45% in size; luciferase light after 4 h
SARS PLP yeast: inhibitors of SARS-CoV papain-like protease in yeast | S. cerevisiae expressing SARS-CoV PLpro, growth rescue; control for the full effect not named in the record | 0.19% of 330,000 active | Potency, µM (series often up to 32.9 µM), without a hit: at the top dose activity, positive = growth rescue; active means well fitted rising curve with a large enough effect; inconclusive means small, poorly fitted or top-dose-only effect; inactive means no such curve, though single readings can be large or run the other way; note: 0% is about no effect; nearly all actives have a fitted effect of over 55% in size; growth read by luminescence after 48 h
NS1 function inh: blocks influenza NS1 protein function; S. cerevisiae slowed by influenza A NS1, growth recovery by OD600; Potency, µM (highest dose often 46.1 µM), for inactives: at the highest dose activity, positive = more growth; 0.4% of 270,000 active; active means well fitted rising curve with a large enough effect; inconclusive means small, poorly fitted or top-dose-only effect; inactive means no such curve, though single readings can be large or run the other way; note: nearly all actives have a fitted effect of over 50% in size
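Recovery from NS1-induced slow growth read by OD600 in budding yeast switched to galactose assay medium (pH 6.0, -URA) at 1:100 dilution. Compound 23 nl per well; the matching strain lacking NS1 serves as control.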
Lassa entry inh: blocks Lassa virus binding to or entry into cells; Lassa virus pseudotype entry inhibition, cell reporter; control for the full effect not named in the record; Potency, µM (highest dose often 37.9 µM), for inactives: at the highest dose activity change, negative = inhibition, hits mostly inhibitors; 1.2% of 300,000 active; active means well fitted inhibition curve with a large enough effect; inconclusive means small, poorly fitted or top-dose-only effect, or effect the other way; inactive means flat fitted curve, though single readings scatter; tested in HEK293 cells; note: % is set by controls: 0 for no effect and ±100 for the full control effect; nearly all actives have a fitted effect of over 50% in size; luciferase read-out
RE007 growth inh: less growth of the S. pombe RE007 Vpr strain; S. pombe RE007 Vpr strain, BacTiter-Glo ATP luminescence, 24 h; control for the full effect not named in the record; 0.21% of 360,000 active; AID 651644; Potency, µM (doses to about 92.2 µM), inactives show top-dose activity change, negative = less growth; active = well fitted falling curve with a large enough effect; inconclusive = small, poorly fitted or top-dose-only effect; inactive = no such curve, though single readings can be large or run the other way;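 note: % is set by controls: 0 for no effect and ±100 for the full control effect; nearly all actives have a fitted effect of over 50% in size; the assay follows cell death caused by Vpr and the record does not say whether a fall means rescue or toxicity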
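Fission yeast RE007 carrying one integrated HIV-1 vpr copy, seeded at OD 0.01 in PMG+AL medium with 23 nL pinned compound. Grown 24 h at 30 degrees; viability read by BacTiter-Glo luminescence after 5 min.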
Cruzain inh Det: cruzain (T. cruzi) inhibition with detergent; P25779; purified cruzain, Z-FR-AMC fluorescence, 0.01% Triton; Potency, µM, for inactives: max response, negative = inhibition, hits mostly inhibitors; 0.43% of 200,000 active; AID 1478;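 note: plate controls were neutral wells for no effect and buffer without enzyme for full effect; nearly all actives have a fitted effect of over 40% in size; top concentration of the series not given in the record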
Target sequence (P25779 123-467 limits assumed): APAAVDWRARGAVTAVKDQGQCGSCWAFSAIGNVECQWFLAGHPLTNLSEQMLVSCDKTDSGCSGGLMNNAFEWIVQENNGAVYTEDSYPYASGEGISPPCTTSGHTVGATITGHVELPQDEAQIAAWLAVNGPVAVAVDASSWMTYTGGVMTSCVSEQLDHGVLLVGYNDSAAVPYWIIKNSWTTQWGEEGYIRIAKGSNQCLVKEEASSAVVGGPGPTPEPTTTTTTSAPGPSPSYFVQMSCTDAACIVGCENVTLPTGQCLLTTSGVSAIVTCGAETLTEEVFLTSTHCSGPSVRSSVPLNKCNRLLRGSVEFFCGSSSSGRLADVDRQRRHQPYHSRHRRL
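Read-out: AMC fluorescence (360 nm excitation, 450 nm emission), four reads over 2 min, first-to-third difference used. Conditions: cruzain 1.5 nM, Z-FR-AMC 2 uM, pH 5.5 acetate, 5 mM DTT, 0.01% Triton X-100.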
Cruzain noTriton: cruzain (T. cruzi) inhibition without detergent. purified cruzain, Z-FR-AMC fluorescence, no detergent. Potency, µM, for inactives: max response, negative = inhibition, hits mostly inhibitors. 2.3% of 200,000 active;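 note: plate controls were enzyme without inhibitor for no effect and buffer without enzyme for full effect; nearly all actives have a fitted effect of over 40% in size; top concentration of the series not given in the record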
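Purified cruzain at 1.5 nM, pre-incubated 15 min with compound at room temperature in 100 mM sodium acetate pH 5.5, 5 mM DTT, 0.00005% Triton X-100. Reaction started with 2 uM Z-FR-AMC; AMC fluorescence increase over 60 s gives rate.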
Active calls of the source: *; ? = inconclusive; · = no result given; & = joins results of further samples; [ ] = remark or other dose. Unless noted, calls come from the whole dose curve; as a rule, active = well fitted curve in the direction sought with a large enough effect; inconclusive = small, poorly fitted or top-dose-only effect, or another doubt; inactive = no such curve, though single readings can be large; an effect the other way counts as inactive or inconclusive. Potency is the fitted concentration of half-maximal effect.

Each structure is followed by: MARV entry inh	2A StopGo	SARS PLP yeast	NS1 function inh	Lassa entry inh	RE007 growth inh	Cruzain inh Det	Cruzain noTriton
> CC1(C)Oc2ccc(C(=O)N3CCOCC3)cc2N(CC(=O)N2CCOCC2)C1=O
  ?	5%	-6%	-11%	15%	2%	1.8%	-1%
> O=C(NCc1ccco1)c1ccc(S(=O)(=O)N2CCCCC2)cc1
  ·	-2%	0%	0%	·	5%	·	·
> Cc1cc(C)c(C)c(S(=O)(=O)N2CCC(C(=O)NCC(c3ccccc3)N(C)C)CC2)c1C (stereo not given)
  ?	-2%	1%	-5%	-3%[46.1 µM]	14%	·	·
> Cc1cc(CNC(=O)Cn2cc([N+](=O)[O-])cn2)c2ccccc2n1
  -2%[46.1 µM]	3%	8%	·	?	-17%	·	·
> Cc1c(Br)c([N+](=O)[O-])nn1CC(=O)NCc1cccnc1
  28%	·	-1%	-1%	3%	12%	-4.6%	-1%
> O=C(NCCO)c1cccc(S(=O)(=O)N2CCCCC2)c1
  17%	·	-4%	-1%	-10%	16%	2.9%	9%
> CC(C)(C)c1nc2ccccc2c(=O)n1N1C(=O)c2ccccc2C1=O
  -14%	0%	16%	-4%	-8%	-2%	-9.1%	12%
> CCNC(=S)NNC(=O)c1ccoc1C
  14%	37%	6%	7%	10%	15%	6.7%	3%
> CCC(=O)N1CCc2cc(S(=O)(=O)NC(Cc3ccccc3)C(=O)Nc3ccc(Cl)cc3)ccc21 (stereo not given)
  3%[46.1 µM]	-2%	·	·	3%[46.1 µM]	·	-1.4%	-12%
> CCOC(=O)C1CCN(C(=O)CS(=O)Cc2nc(-c3ccc(C)cc3)oc2C)CC1 (stereo not given)
  ·	-11%	10%	11µM*	·	0%	-3.1%	18%
> Cc1ccc(C(=O)N/C(=C/c2ccc(-c3cccc([N+](=O)[O-])c3)o2)C(=O)NC(C)C)cc1
  ?	-8%	6%	8%	-25%	-9%	-11%	?
> O=C(Cc1cccs1)Nc1cccc(-c2nc3cc4ccccc4cc3[nH]2)c1
  ?	-5%	-53%	?	?	-10%	-3.4%	-57%
> O=C(N1CCOCC1)N(CCN1CCOCC1)Cc1cccc(Cl)c1
  ?	-10%	·	-7%	12%	-4%	3.1%	4%
> CCCN1C(=O)/C(=C/c2c(NCCCOCC)nc3c(C)cccn3c2=O)SC1=S
  21%&21%	-9%	1%	3%	12%	-1%	2.6%	-18%
> CCOc1ccc(CNC(=O)C2CCCN(S(=O)(=O)c3ccc4c(ccn4C)c3)C2)cc1 (stereo not given)
  ·	-25%	·	·	?	·	-3.9%	-9%
> Cc1cccc(Nc2ncnc3nc[nH]c23)c1C
  ·	23%	8%	-2%	·	11%	-1.3%	-8%
> CCn1c(SCC(=O)N2c3ccccc3Sc3ccccc32)nc2c1c(=O)n(C)c(=O)n2C
  ?	0%	-4%	-37%	?	1%	-0.6%	?
> CCOc1ccc(NC(=O)c2c(NC(=O)c3cccc(C)c3)sc3c2CCC3)cc1
  ·	-6%	·	·	13%[46.1 µM]	·	-0.5%	2%
> O=C(CSc1ccc(-c2ccccc2)nn1)N1CCOCC1
  ?	43%[activator]	-1%	3%	3%	-9%	4.7%	-4%
> Cc1ccc(CNC(=O)CCS(=O)(=O)c2ccc(C)cc2)cc1
  4%[46.1 µM]	-6%	-6%	0%	-4%[46.1 µM]	3%	·	·
> O=C(COC(=O)CNC(=O)c1ccc2c(c1)OCO2)Nc1ncc(Cl)cc1Cl
  -11%[46.1 µM]	-5%	3%	·	7%[46.1 µM]	0%	·	·
> S=C1Nc2cc(Cl)ccc2Sc2ccccc21
  -22%	0%	-14%	-1%	8%	31%	-2.1%	?
> CC(CCc1ccccc1)NC(=O)C(=O)c1c[nH]c2ccccc12 (stereo not given)
  ·	1%	6%	2%	·	14%	·	·
> COCCN(C(=S)Nc1ccccc1C)C(C)c1cccs1 (stereo not given)
  16%	12%	?	-7%	5%	-6%	-3.2%	-5%
> Cc1c(Cl)cnc(NC(=O)COC(=O)c2nn(C)c(=O)c3ccccc23)c1Cl
  -9%	-16%	?	7%	·	10%	-5.6%	-3%
> O=c1cc(-c2ccccc2)c2ccc(O)c(CN3CCCCC3)c2o1
  26%	0%	2%	?	?	-8%	-15%	?
> O=C(CSc1nnc(-c2cccs2)o1)N1CCCc2ccccc21
  -2%	0%	-5%	-7%	7%	0%	-4.9%	0%
> CCOC(=O)c1ccc(NC(=O)c2cccc(S(=O)(=O)N3c4ccccc4CC3C)c2)s1 (stereo not given)
  ?	?	-2%	-12%	?	-2%	-0.8%	?
> CCNS(=O)(=O)c1ccc(NC(=O)c2ccccc2SCCOC)cc1
  -1%	-11%	-1%	8%	-15%	0%	·	·
> O=c1c2cnn(-c3ccccc3)c2nc(-c2cccs2)n1-c1ccc(Br)cc1
  0%	?	14%	-11%	?	-11%	7.6%	-8%
> N=c1c(C(=O)NC2CCCC2)cc2c(=O)n3ccccc3nc2n1CCN1CCOCC1
  -41%	-26%	2%	-6%	4%	-6%	-6.7%	-3%
> CCCCCC(NC(=O)C1CCN(C(=O)[C@@H](NS(=O)(=O)c2ccc(C)cc2)C(C)C)CC1)C(=O)O (stereo not given in full)
  ·	-17%	-1%	9%	·	7%	·	·
> O=C(Oc1cccc(NC(=O)c2ccccc2Cl)c1)c1ccc([N+](=O)[O-])cc1
  11%	-5%	0%	-52%	0%	-26%	1.7%	?
> O=C(c1ccc(Cl)c([N+](=O)[O-])c1)N1CCCc2ccccc21
  ·	14%	2%	-2%	·	5%	·	·
> CSc1ccccc1NC(=O)c1ccc(Cl)s1
  23%	43%[activator]	-16%	-72%	?	-36%	-0.2%	-5%
> CN(CC(=O)Nc1ccc(F)cc1)C(=O)COc1ccccc1Cc1ccccc1
  ?	-21%	-17%	·	?	6%	·	·
> CN1/C(=C\C(=O)COC(=O)CNC(=O)c2ccc3ccccc3c2)C(C)(C)c2ccccc21
  -5%	?	6%	3%	-6%	6%	-24%	25µM*
> CC(=O)Nc1nnc(SCc2cccc(F)c2)s1
  ·	23%	-1%	-9%	·	7%	·	·
> O=[N+]([O-])c1ccccc1S(=O)(=O)NCCC1=CCCCC1
  1%	30%	-10%	-5%	5%	8%	-0.4%	-2%
> CC(C)NC(=O)COC(=O)C1CSC2(c3ccc(Br)cc3)CCC(=O)N12 (stereo not given)
  7%[14.2 µM]	-23%	2%	·	-6%	14%	·	·
> COc1ccc(NC(=O)CCC(=O)N2CCCC2)c([N+](=O)[O-])c1
  ·	6%	-3%	-1%	·	-10%	·	·
> COc1ccc(NC(=O)Nc2ccc3c(c2)N(C)C(=O)CS3)cc1OC
  ?	-20%	6%	-46%	-9%	8%	0.2%	-3%
> CCN(CC)C(=O)CSc1nnc2[nH]c(=O)cc(C)n12
  ·	0%	·	·	-6%[46.1 µM]	·	-0.3%	16%
> Cc1cnc(C(=O)OCC(=O)Nc2oc(-c3ccccc3)c(-c3ccccc3)c2C#N)cn1
  -13%	?	2%	-5%	-5%	-4%	-9.7%	?
> CCOc1ccc(NS(=O)(=O)c2c(C)nc3sccn3c2=O)cc1
  ·	-13%	-8%	6%	·	3%	·	·
> Cc1onc(-c2ccccc2Cl)c1C(=O)Nc1nnc(C(C)C)s1
  ·	2%	-1%	3%	·	1%	1.4%	-11%
> COc1cccc(C(=O)OCC(=O)NC23CC4CC(CC(C4)C2)C3)c1
  22%	-16%	-5%	·	4%	2%	·	·
> CCOc1ccc(-n2c(SCc3nc(-c4cccs4)no3)nnc2-c2ccncc2)cc1
  ?	·	9%	-44%	-27%	-20%	-6.9%	19%
> C/C=C/C(=O)Nc1cccc(C2=NOC3(C2)C[C@@H](C(N)=O)N(C(=O)/C(C)=C/C)C3)c1 (stereo not given in full)
  ·	-3%	2%	1%	·	-12%	·	·
> O=C(NCC(c1cccnc1)N1CCN(c2ccc(F)cc2)CC1)c1ccccc1 (stereo not given)
  -20%	?	-13%	-12%	-13%	-6%	-2.3%	-3%
> Cc1ccc(NC(=O)CSc2nnc(-c3ccccn3)n2C)cc1
  15%	-4%	-1%	6%	17%	57%	3.3%	7%
> O=C(CCNS(=O)(=O)c1ccc(Cl)cc1)NCc1ccccn1
  -8%	41%[activator]	-1%	1%	29%	-17%	5.9%	-2%
> CSc1nc2ccc(S(N)(=O)=O)cc2s1
  5%	0%	-13%	6%	?	20%	-4.2%	5%
> O=C(CCN=C1NS(=O)(=O)c2ccccc21)OCc1ccccc1
  4%	21%	7%	·	12%	-13%	·	·
> Cc1csc2c(=O)[nH]cnc12
  0%[46.1 µM]	1%	-3%	·	-4%	-10%	·	·
> CC(C)NC(=S)N/N=C1\CCCCc2ccccc21
  ·	-12%	?	1%	·	-10%	-6.3%	8%
> COc1ccc(CNC(=O)COC(=O)CCOc2ccccc2)cc1
  -1%	-9%	?	-12%	-3%	11%	-2.1%	12%
> O=C(/C=C/c1ccco1)N(Cc1ccccc1F)C1CCS(=O)(=O)C1 (stereo not given)
  ·	4%	-7%	6%	·	0%	·	·
> CC(=O)NC(C)CCc1ccccc1 (stereo not given)
  15%[46.1 µM]	-12%	0%	3%	-1%[46.1 µM]	1%	·	·
> Fc1ccccc1SCc1nnc(-c2ccccc2Br)o1
  5µM*	-42%	-15%	-25%	?	10%	·	·
> O=C(CN1CCN(c2nc(-c3ccc(F)cc3)cs2)CC1)Nc1ccc2c(c1)OCO2
  12%	0%	-7%	?	2%	-1%	-5.3%	25µM*
> CCOc1ccc(N(C(=O)c2ccc3c(c2)OCO3)C2C=CS(=O)(=O)C2)cc1 (stereo not given)
  -1%	-26%	-6%	11%	-4%	-24%	·	·
> O=C(Cc1ccccc1)Nc1nc(-c2ccc(F)c(F)c2)cs1
  -1%[46.1 µM]	-11%	-2%	2%	·	-9%	·	·

Bioassay records: PubChem BioAssay, National Center for Advancing Translational Sciences (NCATS)

Outcome played no part in choosing rows. About 4.7% of those tested had a hit in this group.
